Assay outcomes deposited in PubChem BioAssay by several laboratories.
Vif TR-FRET: inhibitors of Vif binding to APOBEC3G peptide, primary screen, biochemical, TR-FRET, GST-Vif 1-94, biotin-A3G peptide, dose response retest (AID 1117319); TR-FRET GST-Vif / biotin-A3G peptide binding; higher % means a stronger effect; test concentration not given here; strong numbers were not always called active; inhibition, %, or IC50 in µM where a hit was titrated; hit rate 0.57% among 260,000;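 active means above the screen mean plus three standard deviations and confirmed in dose response; inconclusive means results disagree or hit not tested in dose response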;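 further: Vif residues 1-94 fused to GST binding biotinylated APOBEC3G peptide 110-148; 0% = full assay without inhibitor and 100% = GST in place of GST-Vif; retest series ran down from 100 µM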
Beta2AR agonist: beta2AR agonists driving receptor internalization, primary screen, cell-based, FAP fluorogen, flow cytometry. response, % (test concentration not listed). Am2.2-beta2AR cells; reference of the scale not given here. hit rate 0.43% among 340,000. Beta-2 adrenergic receptor (Homo sapiens), P07550;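 active means response above a set limit, near 3 SD of response in nonfluorescent compounds, cut at about 42% in these data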;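 further: stock transfer was 100 nL into about 11 µL; a reference agonist was the positive control; negative values mostly stem from fluorescent compounds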
LANA-H2A inh: blockers of LANA interaction with H2A/H2B – biochemical, FP readout, HTS, primary screen | inhibition, % (concentration not given with the values) | Protein LANA1 (Human herpesvirus 8 type P (isolate GK18)), Q9QR71 | hit rate 0.6% among 320,000 | cell-free LANA-H2A/H2B peptide, fluorescence polarization; in the data active means inhibition mostly above about 10%, no sharp cut-off; inactive means mostly below about 6.7%;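 further: stock transfer was 7.5 nL into about 10 µL; 0% = median of vehicle wells and 100% = median of positive control wells; one replicate is shown; the record names a cut of 25% in any replicate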
HNF4A DNA FP: change in binding of human HNF4A to DNA, primary screen, biochemical, fluorescence polarization, FITC-DNA. 1 h. hit rate 0.3% among 360,000. activity change, % at 10 µM; in the data active means activity change above about 30%, passing the limit was not always enough;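 further: controls were the assay level and a saturating level of protein; the project sought stronger binding though the title names inhibitors; some compounds called inactive have numbers as strong as hits; positive values seem to mean higher polarization but the record does not say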
Target sequence (P41235 whole entry, looked up): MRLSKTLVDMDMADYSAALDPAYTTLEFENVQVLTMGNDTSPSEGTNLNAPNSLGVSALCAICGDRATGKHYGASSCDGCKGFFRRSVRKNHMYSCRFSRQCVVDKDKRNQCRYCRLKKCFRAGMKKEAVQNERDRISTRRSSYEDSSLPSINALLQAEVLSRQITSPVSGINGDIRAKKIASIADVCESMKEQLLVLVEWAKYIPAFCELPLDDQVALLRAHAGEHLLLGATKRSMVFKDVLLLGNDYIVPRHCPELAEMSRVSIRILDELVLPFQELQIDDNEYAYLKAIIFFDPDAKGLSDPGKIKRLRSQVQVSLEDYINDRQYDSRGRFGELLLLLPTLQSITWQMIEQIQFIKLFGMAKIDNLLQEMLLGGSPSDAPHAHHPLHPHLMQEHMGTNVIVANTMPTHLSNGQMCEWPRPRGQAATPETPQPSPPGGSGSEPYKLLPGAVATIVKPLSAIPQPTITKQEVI
Bfl-1 A1 inh: caspase 3/7 activation in MEF A1-2A-BIM cells, primary screen, A1 inhibitor project, cell-based, luminescence, HTS; caspase activation, % (no concentration beside the values); Caspase-Glo 3/7 luminescence, 3 h; percent of clofoctol response, vehicle zero; hit rate 0.066% among 330,000;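 active means over half of replicate activation scores above 10%, or exactly half above 10 with the replicate mean above 10; inconclusive means replicate mean below 10 yet half the replicates above 10; inactive means over half of replicates below 10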;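 further: wells of about 30 µL received 50 nL stock; many hits fall short of the cut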
UCH37 inh: inhibitors of human UCH37 deubiquitinase, primary screen, biochemical, Ub-AMC cleavage, fluorescence; inhibition, % (concentration not given with the values); AID 588478, 2011; Ubiquitin carboxyl-terminal hydrolase isozyme L5 (Homo sapiens), Q9Y5K5; purified proteasome/UCH37; hit rate 0.33% among 330,000;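 active means mean of two replicates above 20%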;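 further: 0% = compound-free wells with enzyme and 100% = wells lacking proteasome; stock transfer was 100 nL into about 20 µL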
Target sequence (Q9Y5K5 whole entry, looked up): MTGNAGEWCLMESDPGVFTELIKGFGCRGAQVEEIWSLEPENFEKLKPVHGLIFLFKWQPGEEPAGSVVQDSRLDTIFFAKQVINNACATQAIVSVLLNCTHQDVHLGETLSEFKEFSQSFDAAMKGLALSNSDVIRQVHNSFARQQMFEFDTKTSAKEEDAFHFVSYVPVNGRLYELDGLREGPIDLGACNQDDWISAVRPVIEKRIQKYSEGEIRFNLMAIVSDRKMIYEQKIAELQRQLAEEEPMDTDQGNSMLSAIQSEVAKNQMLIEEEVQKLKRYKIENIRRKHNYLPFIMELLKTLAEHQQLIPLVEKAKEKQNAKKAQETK
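System: Proteasome-associated human UCH37 deubiquitinase; Input: 0.15 nM proteasome in added enzyme buffer; Also added: Ub-AMC substrate from 1 µM stock; Incubation: 30 min compound-proteasome preincubation then 25 min substrate reaction, room temperature; Detection: fluorescence, ex 355 nm, em 460 nm; Read-out: % inhibition of Ub-AMC cleavage fluorescence; Benchmarks: no-proteasome and no-compound wells.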
Ecoli growth: E. coli growth inhibition, primary screen, OD600 | Escherichia coli growth, 23 h; stronger effect = lower value | OD600 absorbance (no concentration beside the values) | hit rate 0.21% among 330,000 | AID 1053175, 2014;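 active means OD600 absorbance below the run mean of sample wells minus 3.6 SD, in any replicate, cut at about 0.56 in these data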;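 further: stock transfer was 300 nL into about 60 µL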
Starred values were filed as active, the others as inactive; ? = inconclusive; nt = not tested or not shown; & = joins results of further samples.

SMILES	Vif TR-FRET	Beta2AR agonist	LANA-H2A inh	HNF4A DNA FP	Bfl-1 A1 inh	UCH37 inh	Ecoli growth
Cc1nc(NS(=O)(=O)c2ccccc2)sc1NC(=O)OCCN(C)C	2.9%	-0.1	2.3	-6.2	-0.8	-1.3	0.745
COC(=O)C1=C(C)OC(N)=C(C#N)C1c1ccco1 (stereo not drawn)	13.6%	-3.5	-0.6	-0.6	1.4	4.7	0.686
CCOC(=O)c1oc2nc(C)c3c(c2c1N)CC(C)(C)OC3	-1.1%	4.2	-1.3	2.0	0.5	-400.0	0.671
COc1cc(/C=C/C(=O)N2CCCN(C(=O)/C=C/c3cc(OC)c(OC)c(OC)c3)CC2)cc(OC)c1OC	3.7%	0.7	5.0	2.1	-0.9	4.8	nt
COc1ccc(C2=Nn3c(nnc3-c3cccnc3)SC2)cc1	5.7%	-21.1	nt	-0.4	nt	4.2	0.708
CCN(CC)CCN(C(=O)Cn1nnc(-c2ccc(OC)c(OC)c2)n1)C(C(=O)NC1CCCC1)c1ccc(F)cc1 (stereo not drawn)	?	-7.1	-5.3	0.5	0.4	2.3	0.686
COc1ccccc1-c1cc(-c2ccc(C)cc2)nc(SCc2nnc(-c3ccccc3)o2)c1C#N	-47.4%	0.4	-3.7	-3.8	0.3	-15.6	0.707
COc1ccc(-c2csc(N(CC3CCCO3)C(=O)c3ccco3)n2)cc1 (stereo not drawn)	2.9%	-5.3	3.9	-2.1	0.4	-1.8	0.665
Cc1ccc(S(=O)(=O)CCC(=O)Nc2sccc2C#N)cc1	-3.9%	5.9	0.0	1.9	0.2	4.0	0.722
COc1cc(OC)c(S(=O)(=O)Nc2ccc(C(=O)N3CCCC3)cc2)cc1NC(C)=O	4.0%	-3.9	6.0	0.3	1.1	nt	nt
CC(C)CCNC(=O)C12CN(Cc3ccccc3)CC1C(c1ccc([N+](=O)[O-])cc1)=NO2 (stereo not drawn)	9.8%	0.3	-3.2	-1.7	1.5	0.1	0.629
CCN(CC)CCNC(=O)Cc1nn(Cc2ccccc2)c(=O)c2ccccc12	6.6%	-3.3	-0.9	11.7	-0.7	5.8	0.704
CN1CCN(S(=O)(=O)c2ccc3c(c2)NC(=O)C2CCCN32)CC1 (stereo not drawn)	4.2%	4.6	-0.7	3.8	0.3	-7.7	0.716
COc1ccc(NC(=S)N2CCc3ccccc3C2)cc1OC	3.0%	0.7	2.6	0.8	0.3	2.6	0.686
Cc1ccc(S(=O)(=O)Nc2ccc(S(=O)(=O)N3CCOCC3)cc2)cc1[N+](=O)[O-]	nt	-5.3	2.8	-0.2	0.6	5.0	0.691
CC(C)C(=O)Nc1cccc(C(=O)Nc2nccs2)c1	32.0%	-3.5	1.0	-0.9	-1.9	1.5	0.652
COc1ccccc1N(C(=O)CNC(=O)c1ccco1)C(C(=O)NCC1CCCO1)c1ccccc1 (stereo not drawn)	nt	-7.4	-9.1	-1.8	0.1	-1.6	0.701
O=C(COC(=O)c1cccc(S(=O)(=O)N2CCN(c3ccccc3)CC2)c1)NCC1CCCO1 (stereo not drawn)	24.9%	0.9	7.8	-3.0	-0.1	1.3	0.701
CCCn1c(N)c(C(=O)CSc2nc3ccccc3c(=O)n2Cc2ccccc2)c(=O)[nH]c1=O	nt	-1.9	-2.1	-1.3	0.2	8.2	0.729
COc1ccc(Oc2ccc(N/C=C3\CCCC3=O)cc2)cc1	9.5%	8.3	5.2	1.2	-0.4	-3.1	0.696
COC(=O)c1cc(NC(=O)CC2Oc3ccccc3NC2=O)cc(C(=O)OC)c1 (stereo not drawn)	-5.5%	30.1	-0.4	-1.6	-1.0	-6.0	0.66
O=C(NCCO)c1nc(C(=O)c2ccccc2)c2ccccc2n1	nt	-3.8	0.3	-0.5	-0.6	2.0	0.645
O=C(NC1CCN(C(=O)N2CCOCC2)CC1)c1ccccc1	2.9%	4.1	-18.3	-0.4	-0.2	0.4	0.724
Cc1ccc(OCC(=O)Nc2ccc(N3CCOCC3)cc2)c([N+](=O)[O-])n1	5.2%	-9.2	-3.4	5.6	1.2	5.2	0.68
CCOc1ccc(NC(=O)CSc2nnc(-c3ccncc3)n2CC2CCCO2)cc1 (stereo not drawn)	-11.4%	3.6	-4.1	-0.5	-1.4	2.3	0.692
COc1ccccc1C(=O)Nc1ccc(C(=O)O)cc1	-2.8%	6.7	2.2	2.9	-0.5	0.1	0.678
O=C(Cc1ccc(Br)cc1)NC1CCCCC1	-3.5%	-4.8	-2.9	-1.0	-0.8	-0.3	0.674
CCCCC(=O)NC1(C(F)(F)F)NC(=O)N(Cc2ccccc2)C1=O (stereo not drawn)	11.2%	6.8	-10.4	2.8	-0.1	-0.1	0.735
O=C(CN1CCCCC1)N1N=C(c2cccs2)CC1c1cccs1 (stereo not drawn)	nt	-2.6	-0.6	-1.2	0.6	-3.6	0.708
COC(=O)CNC(=O)Cn1ccc2ccccc2c1=O	-4.8%	-2.6	3.3	1.1	1.3	0.6	0.778
CCC(CC)C(=O)NCCCCc1ccccc1	-12.1%	1.7	-1.8	0.7	-0.1	0.7	0.705
CCNc1nc(NCC)nc(SCCOC(=O)Nc2ccc(Cl)cc2Cl)n1	13.6%	-6.0	-1.4	-5.3	0.4	4.2	nt
Cc1csc(NS(=O)(=O)c2cccc([N+](=O)[O-])c2)n1	0.4%	12.4	1.5	-4.5	-0.8	2.3	0.675
N#C[C@]1(S(=O)(=O)c2ccccc2)C[C@@H]2ON=C(c3cccc(Br)c3)[C@@H]2C1	nt	0.6	-6.6	-3.1	0.0	6.2	nt
COC(=O)[C@@H]1C(c2ccccc2)(c2ccccc2)[C@@]1(C)C(=O)OC	nt	-4.7	-6.3	4.2	-0.6	0.0	0.671
C#CCNC(=O)C1=C[C@@H](C2CC2)[C@H](CCCO)[C@@H](OCC)O1	nt	-0.5	2.6	1.0	-0.9	5.8	nt
CC(C)(C)NC(=O)C(c1ccc(O)cc1)N(C(=O)CCC(=O)Nc1nccs1)c1ccccc1F (stereo not drawn)	-2.9%	1.0	0.0	0.0	0.7	2.5	0.689
CCn1cc(C(=O)NCCN(C)CCc2ccccc2)c(=O)c2cc(S(=O)(=O)N(C)C)ccc21	-0.8%	-5.3	-2.4	-1.9	-0.1	6.8	0.657
O=C(CN1C(=O)COc2ccccc21)NCc1ccccn1	8.3%	8.6	-1.0	-0.3	0.2	3.8	0.711
O=C(CN1C2=NCCN2c2ccccc21)c1ccc(Br)s1	2.2%	-13.8	-3.7	3.2	0.6	1.4	0.668
COC(=O)c1ccc(Cn2cnc3ccccc3c2=O)cc1	13.5%	3.8	-1.2	-2.6	0.7	1.7	0.704
O=C(O)c1cccc(Nc2nc(Nc3ccccc3)nc(N3CCCC3)n2)c1	?	18.2	5.4	-3.5	-0.6	2.1	0.688
C/C(CC(=O)Nc1cc(C)ccn1)=N\NC(=O)C(=O)NC(C)C	nt	11.2	1.2	-2.1	-0.7	nt	nt
O=C(O)c1ccccc1Nc1ccnc(C(F)(F)F)c1	-10.3%	-2.1	-6.1	-1.1	-2.2	-2.2	0.665
CC(=O)N1CCCc2ccccc21	5.7%	2.2	0.3	2.3	-0.5	1.0	0.68
COC(=O)c1sc2ncccc2c1OCc1ccc(Cl)cc1Cl	-3.0%	-2.5	3.0	0.1	-0.7	-2.6	0.693
Cc1nc(Cl)c2c(n1)NC1=C(O2)C(=O)CCC1	nt	14.3	16.3	-79.7	-0.3	-9.9	0.711
CCc1nc(N[C@H](C(=O)O)C(C)C)c2oc3ccccc3c2n1	2.6%	-8.2	-0.8	1.5	1.1	3.1	0.667
COc1cccc(Nc2ccc([N+](=O)[O-])c3nonc23)c1	-0.2%	3.4	-2.9	14.4	-5.4	13.8	0.689
COc1ccccc1-n1c(-c2ccccc2)c[nH]c1=S	17.4%	-0.5	nt	-3.0	nt	1.8	0.637
O=C(CSc1nnc(Cc2ccccc2)n1-c1cccc(Cl)c1)NNC(=O)Cc1ccccc1	-4.3%	-3.8	-8.5	-2.4	0.0	-0.9	0.691
Cc1ccc(S(=O)(=O)n2nc(C)c(C#N)c2N)cc1	-5.3%	-0.4	-1.7	0.9	-0.1	-1.8	0.718
COc1ccc(NC(=S)N2CCC(NC(=O)c3cccc(F)c3)CC2)cc1	nt	1.2	1.3	2.8	0.6	nt	nt
Cc1cc(CCCCCCCCc2cc(C)cc(=O)o2)oc(=O)c1	nt	4.4	-2.8	0.7	-0.1	1.7	0.707
CCOC(=O)c1cnc(-n2nc(C)cc2C)nc1NNc1cc(C)nc(-c2ccccc2)n1	4.9%	5.5	5.0	0.9	-0.2	-19.5	0.708
Cc1ccc(-n2c(SCC(=O)Nc3cc(S(=O)(=O)N4CCOCC4)ccc3Cl)nc3ccccc3c2=O)cc1	3.8%	12.1	8.1	3.4	1.1	nt	nt
COc1ccccc1NC(=O)c1cc[n+](C)cc1	nt	-5.7	4.3	3.4	0.8	0.7	0.648
Nc1nnnn1/N=C/c1cccc(Oc2ccccc2)c1	?	-16.1	-0.3	0.7	-0.1	nt	nt
Nc1ccccc1C(=O)Nc1ccc(Cl)cc1Cl	2.5%	0.6	2.2	-2.9	-0.6	-91.9	0.694
COc1ccc(CCN2C(=O)c3[nH]nc(-c4ccccc4O)c3C2c2cccc(O)c2)cc1OC (stereo not drawn)	4.0%	4.3	0.2	-2.2	-0.1	4.2	0.704

New compounds follow:
SMILES	Vif TR-FRET	Beta2AR agonist	LANA-H2A inh	HNF4A DNA FP	Bfl-1 A1 inh	UCH37 inh	Ecoli growth
Cc1ccc(C(=O)NC23CC4CC(CC(C4)C2)C3)c(Cl)c1	nt	-0.5	-0.7	-0.1	0.1	4.1	0.686
Fc1ccc(N2CCN(c3ncnc4c3nnn4Cc3ccccc3Cl)CC2)cc1	-7.4%	2.6	-3.1	-2.8	0.7	-1.4	0.753
COc1ccccc1-c1noc(-c2ccccc2C(=O)NCC2CCCO2)n1 (stereo not drawn)	nt	1.9	-3.0	-0.9	-0.2	4.4	0.679
CCOc1cccc(-c2c(C(=O)N/N=C/c3ccc(C)s3)nnn2-c2nonc2N)c1	nt	19.9	5.4	-1.4	-0.9	nt	nt
Cc1ccc(S(=O)(=O)Cn2nnnc2CN(Cc2ccco2)CC2CCCO2)cc1 (stereo not drawn)	2.2%&-2.5%	-6.5	4.7	3.5	-0.5	-0.6	0.668
O=c1c(Cl)cc(Cl)nn1-c1ccccc1	-12.6%	15.5	-4.0	2.6	-1.7	2.6	0.63
O=C(Nc1ccc(-n2nncc2-c2ccco2)cc1)c1cc2ccccc2oc1=O	8.6%	4.3	-0.3	-42.7	1.4	-0.4	0.681
Cc1ccc(CNC(=O)CCn2cc(-c3ccc(F)cc3)nc2-c2ccncc2)cc1	nt	-8.0	-1.4	-7.0	-0.4	-1.4	0.71
C/C(=N\NC(=O)CC(C)C)c1c(C(F)(F)F)[nH]n(-c2nc3ccccc3s2)c1=O	-6.9%	-6.0	5.8	3.4	-10.1	nt	nt
CCOC(=O)c1c(CN2CCN(CCO)CC2)n(C)c2cc(Br)c(OC)cc12	7.2%&-9.2%	9.5	0.9	2.2	0.2	5.0	0.733
COc1ccc(C(=O)c2cc(OC)c(OC)c(OC)c2)cc1OC	-4.0%	32.2	nt	6.1	nt	3.0	0.684
